Assay outcomes from PubChem.
GIV-Gai inh = inhibitors of GIV GBA-motif binding to rat Galpha-i3. 210,000 tested, 0.42% active. percent of control (FP), % (no concentration beside the values). AID 1224905. P08753. Galpha-i3/FITC-GIV peptide fluorescence polarization, 90 min; active compounds read low; scaled: aluminum fluoride 0%, vehicle 100%;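 active = replicate mean at 85% of control or lower, very high polarization wells dropped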;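 note: wells of about 15 µL received 100 nL stock; the first replicate is given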
Target sequence (P08753 whole entry, looked up): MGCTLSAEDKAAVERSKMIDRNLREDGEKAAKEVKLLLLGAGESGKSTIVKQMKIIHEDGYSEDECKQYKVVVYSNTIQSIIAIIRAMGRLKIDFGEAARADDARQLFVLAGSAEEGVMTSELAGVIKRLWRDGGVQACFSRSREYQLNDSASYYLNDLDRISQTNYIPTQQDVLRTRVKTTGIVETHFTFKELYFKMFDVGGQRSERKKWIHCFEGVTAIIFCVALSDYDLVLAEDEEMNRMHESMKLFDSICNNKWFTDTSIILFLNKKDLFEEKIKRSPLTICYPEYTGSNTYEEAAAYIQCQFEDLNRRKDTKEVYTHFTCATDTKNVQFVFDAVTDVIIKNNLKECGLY
Sa growth 42C = blocks Staphylococcus aureus growth; 170,000 tested, 0.53% active; AID 720641; relative growth, % (concentration not given with the values); S. aureus RN4220 growth, OD600, 20 h, 42 °C; active compounds read low;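 active = growth at 42 °C up to 50% and 20 or more points under that at 30 °C, or under 10% at both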;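 note: 300 nL library stock went into each well; scaled to the means of positive and negative controls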
HCMV UL50-53 inh = cytomegalovirus nuclear egress complex inhibition. HTRF UL50-UL53 interaction, normalized percent inhibition. 190,000 tested, 0.15% active. inhibition, % (no concentration beside the values);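 active = both replicates at 50% or more, plus weaker picks with an unusually low signal ratio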;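 note: stock transfer was 100 nL into about 20 µL; 0% = negative control wells and 100% = wells with untagged competitor protein; inactives centre near -12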
Sa growth 42C second temp = recorded beside Sa growth 42C, whose call it bears; relative growth, %; measured here: growth at 30 °C;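 optical density after 20 h as mean of two plates; 100% = untreated growth and lower means inhibition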
* = called active by the depositor; . = not tested or not shown; & = joins results of further samples.

1	CC(C)(C)c1ccc(S(=O)(=O)c2cnc(SCC(=O)Nc3ccc4c(c3)OCCO4)[nH]c2=O)cc1
2	COC(=O)c1c(NC(=O)N2CCCC2c2ccc(OC)cc2)sc2c1CCCC2 (centres undefined)
3	CCc1ccc(C2c3c(-c4ccccc4O)n[nH]c3C(=O)N2Cc2cccnc2)cc1 (centres undefined)
4	CCN(Cc1ccccc1)Cc1csc(C)c1C
5	Nc1nncn1C(=O)CC1CCS(=O)(=O)C1 (centres undefined)
6	O=C(NCc1ccco1)C(c1cccs1)N(C(=O)C1COc2ccccc2O1)c1cccc(O)c1 (centres undefined)
7	COc1ccc(NC(=O)N(Cc2ccccc2)C(=O)CC#N)cc1
8	C=CCSc1nc2c(c(=O)[nH]1)C(c1sccc1C)C(C(=O)OC)=C(C)N2 (centres undefined)

Screen / compound no.	1	2	3	4	5	6	7	8
GIV-Gai inh	98	102	103	104	106	108	116	98
Sa growth 42C	72	.	102	98	87	106	98	.
Sa growth 42C second temp	79	.	87	93	96	68	95	.
HCMV UL50-53 inh	7	-30	-23	-29	5	2	6	-21

9	CCc1cccc(NS(=O)(=O)c2c(C)[nH]c(=O)[nH]c2=O)c1
10	COc1ccc(OC)c(NC(=O)c2oc3c(c2C)-c2nn(Cc4ccc(Cl)cc4)cc2CC3)c1
11	N#CCc1ccc(OCc2cnc(Cl)s2)cc1
12	O=c1c(S(=O)(=O)c2ccc(F)cc2)c[nH]c2c(F)cc(Cl)cc12
13	COc1cccc(N2CCN(C(=O)C3CCN(c4ccc5nnc(C)n5n4)CC3)CC2)c1
14	Cc1ccc(C)c(SCC(=O)N(C)C)c1
15	O=C1C(=O)N(C2CCN(S(=O)(=O)Cc3ccccc3)CC2)CCN1Cc1cccc(F)c1
16	Cc1ccc(-n2nc(CO)c(C(=O)NCCCCc3ccccc3)n2)cc1C

Screen / compound no.	9	10	11	12	13	14	15	16
GIV-Gai inh	102	102	100	102	97	.	98	100
Sa growth 42C	111	107	.	.	.	102	.	96
Sa growth 42C second temp	97	103	.	.	.	93	.	92
HCMV UL50-53 inh	-7	5	-12	-37	-31	-13	-23	22

17	Cc1cc(C)n2ncc(C(=O)Nc3ccc(F)cc3)c2n1
18	CC(=O)Nc1ccccc1-c1ccccc1
19	CN(CC(=O)Nc1ccccc1F)S(=O)(=O)c1ccc2c(c1)c(=O)n(C)c(=O)n2C
20	Cc1ccc(S(=O)(=O)NC2(C(F)(F)F)C(=O)N(Cc3ccco3)C3=C2C(=O)CC(C)(C)C3)cc1 (centres undefined)
21	CC(C)c1ccc(N2C(=O)CS(=O)(=O)C23C(=O)N(Cc2cccc(F)c2)c2ccccc23)cc1 (centres undefined)
22	O=C(NC1CC1)c1ccc(Nc2ccnc(-c3ccc(F)cc3)n2)cc1
23	COC(=O)C(Cc1c[nH]c2ccccc12)NC(=O)C12CC3CCC1CC(C3)C2 (centres undefined)
24	Cc1nc2nc(N(CCOc3ccccc3)S(=O)(=O)c3ccc(Cl)cc3)nn2c(C)c1Cl

Screen / compound no.	17	18	19	20	21	22	23	24
GIV-Gai inh	104	98	103	98	105	102	.	104
Sa growth 42C	.	106	104	106	93	.	120	.
Sa growth 42C second temp	.	96	99	88	91	.	82	.
HCMV UL50-53 inh	2	-6	17	-5	.	-11	1	-21

25	Cc1ccc(C#N)c(SCC(=O)N2c3ccccc3Sc3ccccc32)n1
26	Cc1cccc(NC(=O)C2C3C=CC4(O3)C2C(=O)N(Cc2cccnc2)C4C(=O)NC2CCCC(C)C2C)c1 (centres undefined)
27	OCc1ccccc1CNCc1ccccc1
28	Cc1ccccc1NC(=S)N1CCCCC1
29	Cn1c(CC23CC4CC(CC(C4)C2)C3)nnc1SCC(N)=O
30	Cn1nc(C(=O)NCCCN2CCOCC2)c2c1-c1ccccc1S(=O)(=O)C2
31	CC(C)CN(CC(C)C)C(=O)c1cc2ccccc2oc1=O
32	CC1CCCC(NCCN2CCOCC2)C1 (centres undefined)

Screen / compound no.	25	26	27	28	29	30	31	32
GIV-Gai inh	102	100	.	105	102	101	98	97
Sa growth 42C	.	111	104	110	109	104	99	105
Sa growth 42C second temp	.	94	87	100	99	94	98	118
HCMV UL50-53 inh	-15	-8	-12	-7	9	-5	.	3

33	CCN(CC)C(=O)c1c(-c2ccccc2)c(-c2ccccc2)nn(CC)c1=O
34	O=C(NC1CCCCC1)c1ccc(S(=O)(=O)N2CCCC2)cc1
35	O=C(CN1C(=O)c2ccccc2C1=O)OCCCn1c(=O)[nH]c2ccccc21
36	CCCN(Cc1cccs1)C(=O)Nc1cccc(C)c1
37	Cc1ccccc1NC(=O)c1sc2nc3n(c(=O)c2c1C)N=C(c1ccccc1)CS3
38	O=C(COC(=O)c1cccs1)NCC1CCCCC1
39	O=C(COC(=O)c1ccc(N2CCCC2=O)cc1)c1ccc2c(c1)OCCO2
40	CCOC(=O)c1ccc(NC(=O)c2c(C)oc3nc(C)nc(N4CCCC4)c23)cc1

Screen / compound no.	33	34	35	36	37	38	39	40
GIV-Gai inh	102	102	.	104	100	.	.	105
Sa growth 42C	94	88	75	81	83	103	103	101
Sa growth 42C second temp	89	88	88	93	92	85	86	84
HCMV UL50-53 inh	-5	-20	-56	-24	-10	-14	3	.

41	O=C(Nc1cnn(Cc2ccc(F)cc2)c1)c1cnccn1
42	COc1ccc(CNC(=O)c2ccc3c(c2)nc2n3CCOC2)c(OC)c1
43	NC(=O)c1ccccc1NC(=O)C1COc2ccccc2O1 (centres undefined)
44	Cc1[nH]c2ccccc2c(=O)c1CN1CCCCC1
45	COc1ccc2[nH]cc(CCNC(=O)c3ccc4c(c3)nc(C)c(=O)n4Cc3ccccc3)c2c1
46	CCOP(C)(=O)/C(C#N)=C(\O)c1cc(OC)c(OC)c(OC)c1 (centres undefined)
47	CC(CC(=O)NCc1ccc(Cl)cc1)CC1=NS(=O)(=O)c2ccccc2N1 (centres undefined)
48	COc1ccc2c(c1)c(CC(=O)Nc1cc(C)cc(C)c1)c(C)n2C(=O)c1ccc(Cl)cc1

Screen / compound no.	41	42	43	44	45	46	47	48
GIV-Gai inh	104	105	.	101	109	.	105	99
Sa growth 42C	110	86	105	86	.	100	128	93
Sa growth 42C second temp	76	86	80	89	.	92	80	93
HCMV UL50-53 inh	.	.	-10	.	-11	-15	.	-13

49	CCCOc1ccc(C2C(=O)N(C3CCCCCC3)CC(=O)N2CCCOCC)cc1OC (centres undefined)
50	Fc1cccc(N2N=C(/C=C/c3cccs3)CC2c2cccs2)c1 (centres undefined)
51	CC1CC(=O)Nc2ccccc2N1C(=O)Cn1ncc(Cl)c(Cl)c1=O (centres undefined)
52	CCCc1c(C)nc2nc[nH]n2c1=O
53	CCC(=O)N=C1SC2CS(=O)(=O)CC2N1c1ccc(F)c(Cl)c1 (centres undefined)
54	CCn1c(=NC(=O)c2ccc(S(=O)(=O)N3CCCC3)cc2)sc2c3ccccc3ccc21
55	O=C(Cc1ccc(F)cc1)N/N=C/c1ccc(-c2ccc(Cl)c(C(=O)O)c2)o1
56	Cn1c(C(=O)O)c(S(=O)(=O)c2ccc(Cl)cc2)c2ccccc21

Screen / compound no.	49	50	51	52	53	54	55	56
GIV-Gai inh	104	102	.	103	96	102	101	109
Sa growth 42C	114	.	80	.	104	97	82	88
Sa growth 42C second temp	88	.	88	.	86	91	89	98
HCMV UL50-53 inh	.	-8	-54	-11	-13	.	-113	1

The last four entries of the part before come first, to join the parts.
53	CCC(=O)N=C1SC2CS(=O)(=O)CC2N1c1ccc(F)c(Cl)c1 (centres undefined)
54	CCn1c(=NC(=O)c2ccc(S(=O)(=O)N3CCCC3)cc2)sc2c3ccccc3ccc21
55	O=C(Cc1ccc(F)cc1)N/N=C/c1ccc(-c2ccc(Cl)c(C(=O)O)c2)o1
56	Cn1c(C(=O)O)c(S(=O)(=O)c2ccc(Cl)cc2)c2ccccc21
57	O=C(O)c1ccncc1Br
58	O=C(Nc1nnc(S(=O)(=O)N2CCCc3ccccc32)s1)c1ccc(Cl)cc1
59	NC(=O)NCCC1=CCCCC1
60	CCCCC(=O)Cc1ccco1
61	O=S(=O)(c1ccc(Cl)cc1)n1ccc(-c2cnc3ccccc3n2)c1
62	O=c1[nH]c2ccc(NCc3ccccc3C(F)(F)F)cc2[nH]1
63	CN(C)C(=O)Nc1ccc(C(C)(C)C)cc1
64	CCOc1nc2c(c(C)nn2-c2ccc(C)cc2)c(C)c1CCC(=O)NCc1ccc(OC)cc1

Screen / compound no.	53	54	55	56	57	58	59	60	61	62	63	64
GIV-Gai inh	96	102	101	109	98	106	.	128	114	97	112	105
Sa growth 42C	104	97	82	88	94	117	93	80	95	83	109	.
Sa growth 42C second temp	86	91	89	98	84	58	94	62	94	86	98	.
HCMV UL50-53 inh	-13	.	-113	1	-8	-30	-8	-138	-8	-9	4	-32

65	COc1ccc(-c2nn3c(N4CCN(C5CCCCC5)CC4)cc(C)nc3c2C)cc1OC
66	CCCCN1C(=O)c2[nH]nc(-c3ccccc3O)c2C1c1cc(Br)c(O)c(OC)c1 (centres undefined)
67	COc1cccc(CNC(=O)c2ccc(Nc3nc4ccccc4n4nnnc34)cc2)c1
68	COc1ccc(NC(=O)COc2ccccc2Cl)cc1CN1CCn2c(nc3ccccc32)C1
69	COC(=O)c1c(C)[nH]c(C(=O)C(C)N(C)Cc2ccccc2OC)c1C (centres undefined)
70	Cc1cccc(C2CC(=O)Nc3cc4c(cc32)OCO4)c1 (centres undefined)
71	COC(=O)c1ccccc1NC(=O)c1ccc2c(=O)n3c(nc2c1)CCCCC3
72	CCOc1ccc(N(C)C(=O)C2CCN(S(=O)(=O)c3c(C)noc3/C=C/c3ccc(C)cc3)CC2)cc1

Screen / compound no.	65	66	67	68	69	70	71	72
GIV-Gai inh	106	101	105	97	.	106&99	101	107
Sa growth 42C	.	105	105	.	95	100	103	124
Sa growth 42C second temp	.	83	84	.	97	87	76	105
HCMV UL50-53 inh	-30	-13	.	-26	-14	-5&17	0	.

73	COc1cc(NC(=O)c2cc3nc(-c4ccc(OC)c(OC)c4)cc(C(F)(F)F)n3n2)cc([N+](=O)[O-])c1
74	O=C(CSc1n[nH]c(-c2ccccc2F)n1)c1ccccc1
75	C=CCNC(=O)c1cc(-c2ccc(Cl)cc2Cl)oc1C
76	CCSC1=C(C#N)C(=N)n2c1cc1c2CCCC1
77	COc1ccc(CNC(=O)CN2C(=O)COc3ccccc32)c(OC)c1
78	CCc1ccc(C2C(C(=O)Nc3ccccc3)=C(C)Nc3c(C(=O)Nc4ccc(C)cc4)cnn32)cc1 (centres undefined)
79	COc1ccc(-n2c(SCC(=O)c3c[nH]c4ccccc34)nc3cc(C(=O)NC(C)C)ccc3c2=O)cc1
80	CCCOC(=O)Nc1sc2c(c1C(N)=O)CCC2

Screen / compound no.	73	74	75	76	77	78	79	80
GIV-Gai inh	102	100	107	.	102	97	116	.
Sa growth 42C	.	103	81	99	90	82	.	102
Sa growth 42C second temp	.	106	77	93	91	96	.	81
HCMV UL50-53 inh	-15	0	.	-9	.	.	-4	-8

81	CCc1ccc(NCc2cc(=O)n3[nH]c(NCc4ccccc4)nc3n2)cc1
82	Cn1c(=O)n(Cc2ccccc2)c(=O)c2c1nc(N1CCNCC1)n2Cc1ccccc1
83	Cc1cc(SCC(=O)Nc2ccc(F)cc2F)nc(=O)[nH]1
84	COC(=O)CSc1nc2sc3c(c2c(=O)n1-c1ccc(C)cc1)CCC3
85	CC(C)(C)C1CCC(C(=O)OCC(=O)Nc2ccc3[nH]c(=O)[nH]c3c2)CC1 (centres undefined)
86	CCCOc1ccc(C2NC(=O)NC(C)=C2C(=O)OCc2ccc3c(c2)OCO3)cc1OC (centres undefined)
87	c1nc2nc3c(c(NC4CCCCCC4)n2n1)CCC3
88	O=C(NCc1cccc(CNC(=O)c2cnccn2)c1)c1cnccn1

Screen / compound no.	81	82	83	84	85	86	87	88
GIV-Gai inh	99	111	119	103&105	.	104	104	102
Sa growth 42C	.	.	92	.	113	.	.	77
Sa growth 42C second temp	.	.	92	.	90	.	.	86
HCMV UL50-53 inh	-37	8	.	-2	-27	-5	-21	-10

89	COc1ccc(NC(=O)C(CC(C)C)NC(=O)C2CCCCC2)c(OC)c1 (centres undefined)
90	O=C(NCCSc1ncc(-c2ccccc2)[nH]1)c1ccco1
91	O=C(NCc1ccc(Cl)cc1)c1cccnc1OCC(F)(F)F
92	Cc1ccc(NC(=O)N2C(=O)C3(OCCO3)c3ccccc32)cc1
93	CCN(CC)CCn1c(=N)n(CCOc2ccccc2Cl)c2ccccc21
94	CN(C)c1ccc(C=NCC2COc3ccccc3O2)cc1 (centres undefined)
95	Cc1ccc(CSc2nc3ccc(NC(=O)COc4ccccc4)cc3s2)cc1
96	O=S(=O)(c1ccc(Br)cc1)c1nc(-c2ccccc2)oc1N1CCOCC1

Screen / compound no.	89	90	91	92	93	94	95	96
GIV-Gai inh	103	106	108	102	108	99	99	104
Sa growth 42C	97	106	95	110	109	94	99	.
Sa growth 42C second temp	97	88	95	90	79	100	86	.
HCMV UL50-53 inh	-9	-20	-16	-34	1	.	-34	-13
